# RE007 growth inh: less growth of the S. pombe RE007 Vpr strain; AID 651644; Potency, µM (doses to about 92.2 µM), without a hit: at the top dose activity change, negative = less growth; S. pombe RE007 Vpr strain, BacTiter-Glo ATP luminescence, 24 h; control for the full effect not named in the record; 360,000 tested, 0.21% active; active = well fitted falling curve with a large enough effect; inconclusive = small, poorly fitted or top-dose-only effect; inactive = no such curve, though single readings can be large or run the other way;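 further: on the % scale 0 is the no-effect control and ±100 the full control effect; nearly all actives have a fitted effect of over 50% in size; the assay follows cell death caused by Vpr and the record does not say whether a fall means rescue or toxicity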
#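 Fission yeast RE007 carrying one integrated HIV-1 vpr copy, seeded at OD 0.01 in PMG+AL medium with 23 nL pinned compound. Grown 24 h at 30 degrees; viability read by BacTiter-Glo luminescence after 5 min.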
# NS1 function inh: influenza NS1 inhibition; S. cerevisiae slowed by influenza A NS1, growth recovery by OD600; Potency, µM (doses to about 46.1 µM), for inactives: at the highest dose activity, positive = more growth; 270,000 tested, 0.4% active; AID 2326; further: actives are rising curves; nearly all actives have a fitted effect of over 50% in size
#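 Recovery from NS1-induced slow growth read by OD600 in budding yeast switched to galactose assay medium (pH 6.0, -URA) at 1:100 dilution. Compound 23 nl per well; the matching strain lacking NS1 serves as control.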
# StopGo reporter: FMDV 2A StopGo reporter, luciferase signal. Potency, µM (titrated, usually from 57.9 µM), for inactives: top-dose signal change, negative = less light. AID 1159524. human cells with a luciferase reporter of 2A StopGo recoding; control for the full effect not named in the record. 410,000 tested, 1.2% active; active = well fitted falling curve with a large enough effect; inconclusive = small, poorly fitted or top-dose-only effect; inactive = no such curve, though single readings can be large or run the other way; tested in HEK293T cells; further: on the % scale 0 is the no-effect control and ±100 the full control effect; nearly all actives have a fitted effect of over 45% in size; luciferase light after 4 h
# Cruzain Triton: cruzain (T. cruzi) inhibition with detergent; Potency, µM, for inactives: max response, negative = inhibition, actives largely listed as inhibitors; purified cruzain, Z-FR-AMC fluorescence, 0.01% Triton; 200,000 tested, 0.43% active; AID 1478; active means well fitted curve in the direction sought with a large enough effect; inconclusive means small, poorly fitted or top-dose-only effect, or another doubt; inactive means no such curve, though single readings can be large; an effect the other way counts as inactive or inconclusive;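 further: plate controls were neutral wells for no effect and buffer without enzyme for full effect; nearly all actives have a fitted effect of over 40% in size; top concentration of the series not given in the record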
# Target sequence (P25779 123-467 limits assumed): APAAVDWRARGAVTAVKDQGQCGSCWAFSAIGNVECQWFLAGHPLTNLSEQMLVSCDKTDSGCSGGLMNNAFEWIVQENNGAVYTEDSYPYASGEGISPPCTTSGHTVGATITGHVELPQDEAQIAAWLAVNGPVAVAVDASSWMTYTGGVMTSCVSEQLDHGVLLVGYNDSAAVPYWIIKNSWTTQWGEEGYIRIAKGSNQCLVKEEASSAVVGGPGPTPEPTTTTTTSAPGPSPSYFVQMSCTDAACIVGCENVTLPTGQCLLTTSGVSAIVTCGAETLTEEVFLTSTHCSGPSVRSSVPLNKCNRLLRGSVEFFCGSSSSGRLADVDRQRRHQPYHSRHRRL
#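 Detergent-containing run (0.01% Triton X-100) in acetate buffer pH 5.5 with 5 mM DTT: enzyme at 1.5 nM final, 15 min compound preincubation at room temperature, then 2 uM Z-FR-AMC substrate. Activity taken as 60 s fluorescence increase at 360/450 nm.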
# Marburg entry inh: Marburg virus entry inhibition | Marburg virus pseudotyped entry inhibition, cell reporter; control for the full effect not named in the record; about a third of the inactives were read at about 46 µM | 300,000 tested, 1.8% active | Potency, µM (highest dose often 37.8 µM), for the others: top-dose activity change, negative = inhibition, usual class: inhibitors; active = well fitted inhibition curve with a large enough effect; inconclusive = small, poorly fitted or top-dose-only effect, or effect the other way; inactive = flat fitted curve, though single readings scatter; tested in HEK293 cells; about a fifth of its hits are not listed in these tables; further: on the % scale 0 is the no-effect control and ±100 the full control effect; luciferase read-out
# SARS PLpro yeast: inhibitors of SARS-CoV papain-like protease in yeast | S. cerevisiae expressing SARS-CoV PLpro, growth rescue; control for the full effect not named in the record | Potency, µM (titrated, usually from 32.9 µM), inactives show at the top dose activity, positive = growth rescue | 330,000 tested, 0.19% active | AID 485353; further: 0% is about no effect; nearly all actives have a fitted effect of over 55% in size; growth read by luminescence after 48 h
# Cruzain noTriton: inhibitors of Trypanosoma cruzi cruzain without detergent; Potency, µM, for inactives: max response, negative = inhibition, most hits filed as inhibitors; P25779; purified cruzain, Z-FR-AMC fluorescence, no detergent; 200,000 tested, 2.3% active; active means well fitted curve in the direction sought with a large enough effect; inconclusive means small, poorly fitted or top-dose-only effect, or another doubt; inactive means no such curve, though single readings can be large; an effect the other way counts as inactive or inconclusive;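 further: plate controls were enzyme without inhibitor for no effect and buffer without enzyme for full effect; nearly all actives have a fitted effect of over 40% in size; top concentration of the series not given in the record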
#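 Purified cruzain at 1.5 nM, pre-incubated 15 min with compound at room temperature in 100 mM sodium acetate pH 5.5, 5 mM DTT, 0.00005% Triton X-100. Reaction started with 2 uM Z-FR-AMC; AMC fluorescence increase over 60 s gives rate.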
# LASV entry inh: inhibitors of Lassa virus binding or cell entry; Lassa virus pseudotype entry inhibition, cell reporter; control for the full effect not named in the record; Potency, µM (top dose mostly 37.9 µM), for the others: top-dose activity change, negative = inhibition, most hits filed as inhibitors; 300,000 tested, 1.2% active; active means well fitted inhibition curve with a large enough effect; inconclusive means small, poorly fitted or top-dose-only effect, or effect the other way; inactive means flat fitted curve, though single readings scatter; tested in HEK293 cells; further: on the % scale 0 is the no-effect control and ±100 the full control effect; nearly all actives have a fitted effect of over 50% in size; luciferase read-out
# * hit, by the source's call; ? = inconclusive; nt = no result given; & = joins results of further samples; [ ] = remark or other dose. Unless noted, the call rests on the fitted dose curve; in most records, active means well fitted rising curve with a large enough effect; inconclusive means small, poorly fitted or top-dose-only effect; inactive means no such curve, though single readings can be large or run the other way. Potency means the concentration at half of the fitted maximal effect. The order is random (roughly 4.5% active in at least one column).
SMILES,RE007 growth inh,NS1 function inh,StopGo reporter,Cruzain Triton,Marburg entry inh,SARS PLpro yeast,Cruzain noTriton,LASV entry inh
O=P(Oc1ccc(Cl)cc1)(N1CC1)N1CC1,-12%,nt,0%,nt,-2%[46.1 µM],nt,nt,-1%[46.1 µM]
O=[N+]([O-])c1ccc(C[n+]2ccc(Cc3ccccc3)cc2)cc1,?,nt,-28%,nt,-5%,-1%,nt,-22%
O=C(N/N=C/c1ccccn1)c1cc(-c2ccc(Cl)s2)[nH]n1,-8%,-1%,-2%,nt,-17%[46.1 µM],0%,nt,-15%[46.1 µM]
CC(C)C(=O)Nc1ccc(C(=O)NNC(=S)NC(=O)c2ccccc2[N+](=O)[O-])cc1,-11%,0%,-3%,nt,nt,1%,nt,nt
CC(=O)N1CCOc2cc(S(=O)(=O)NCc3ccc(F)cc3)c(C)cc21,6%,17%,111%&36%[activator],-0.6%,nt,4%,3%,1%[46.1 µM]
COc1ccc(-c2n[nH]c(=S)n2-c2cc(OC)ccc2OC)cc1,6%,6%,15%,nt,-19%,0%,nt,?
CCc1sc(C(=O)Nc2ccc(N3CCOCC3)cc2)cc1C,-6%,nt,19%,nt,?,-9%,nt,-29%[46.1 µM]
COc1cccc(NC(=O)CSc2nc(=O)[nH]c3c2CCCC3)c1,nt,nt,-12%,-1.8%,nt,nt,6%,4%[46.1 µM]
CCOC(=O)c1c(NC(=O)C2C3C=CC(CC3)C2C(=O)O)sc(C)c1CC (centres undefined),2%,-20%,?,-6.6%,-16%,6%,-9%,-5%
C=CCOCCN(CC)CC,1%,-2%,-10%,nt,8%[46.1 µM],1%,nt,2%
COc1ccccc1NC(=O)CCN1C(=O)/C(=C\c2cc(OC)c(OC)c(OC)c2)SC1=S,8%,4%,-30%,nt,nt,6%,nt,nt
COc1ccc(S(=O)(=O)NC2CC2)cc1Cl,8%,10%,44%,nt,nt,?,nt,nt
Cc1nc2ccc(Cl)cc2c(=O)n1-c1ccccc1Cl,8%,-25%,-19%,nt,?,-1%,nt,-12%
CCOc1ccc(-c2nc(CSCC(=O)NC3CCCc4ccccc43)c(C)o2)cc1 (centres undefined),10%,9%,0%,-8.4%,-15%,11%,9%,-12%
COc1ccc(/C=N/Nc2nc3ccccc3c(=O)[nH]2)cc1,-13%,-13%,41%[activator],-9.5%,16%,-2%,-1%,12%
Fc1ccc(-c2n[nH]c(=S)n2CC2CCCO2)cc1 (centres undefined),3%,1%,-21%,7.1%,5%,-10%,4%,0%
CC1CCc2sc(C(=O)NNC(=S)NCC3CCCO3)cc2C1 (centres undefined),6%,0%,4%,nt,nt,-6%,nt,nt
CN(C)C(=O)CN(c1ccc(F)c(Cl)c1)S(C)(=O)=O,-4%,-2%,nt,4.1%,-8%,13%,-1%,4%
O=C(c1ccc(S(=O)(=O)N2CCCCC2)cc1)N1CCN(c2ccccc2)CC1,13%,-19%,-2%,6.1%,20%,0%,-9%,-16%
CC(=O)N1CCN(CCN=CC2=C(O)CC(C)(C)CC2=O)CC1,1%,0%,7%,-5.7%,-20%,11%,-2%,29%[14.3 µM]
O=C(c1ccccc1)c1ccc2nc(-c3ccc(NC(=O)c4ccccc4F)cc3)[nH]c2c1,-5%,23%,-13%,-2.6%,-25%,-1%,?,-3%
O=C(CNS(=O)(=O)c1ccc(Br)s1)Nc1ccc2c(c1)OCCO2,-14%,-13%,0%,0.2%,?,2%,-1%,5%
Cc1c(Cl)cccc1NC(=S)NC(=O)CCN1C(=O)c2ccccc2C1=O,-5%,18%,21%,-1.1%,13%,-9%,11%,-2%
O=c1cc(Nc2cccc(Br)c2)[nH]c(=O)[nH]1,35%,nt,2%,nt,2%[46.1 µM],1%,nt,11%
COc1ccc(N2C(=O)CC(Cc3ccccc3OC)C2=O)cc1 (centres undefined),1%,9%,18%,nt,?,-2%,nt,8%
O=C1CCc2cc(S(=O)(=O)N3CCN(c4ccc(F)cc4)CC3)cc3c2N1CC3,7%,nt,-18%,nt,-1%,7%,nt,12%[46.1 µM]
CCCCOc1ccccc1C(=O)N(Cc1cccc(F)c1)C1CCS(=O)(=O)C1 (centres undefined),nt,nt,0%,-5.2%,-7%[46.1 µM],nt,4%,-1%[46.1 µM]
CC(NC(=O)c1cc(=O)[nH]c2ccccc12)c1ccc(F)cc1F (centres undefined),9%,-4%,10%,nt,?,0%,nt,?
CC1CCN(CCCOc2ccc(Br)cc2Cl)CC1,13%,-4%,11%,nt,?,-5%,nt,?
O=[N+]([O-])c1cccc(CSc2nnc3ccccn23)c1,-11%,-3%,12%,nt,22%[46.1 µM],-2%,nt,22%
S=c1[nH]nc(Cn2cnc3ccccc32)n1-c1ccccc1Cl,1%,-2%,-11%,nt,nt,1%,nt,nt
CN(C(=O)CC1C(=O)NCCN1Cc1c(F)cccc1Cl)C1CCOCC1 (centres undefined),-8%,2%,7%,nt,nt,4%,nt,nt
CC(C)Cc1nc2oc3c(NCc4cccnc4)ncnc3c2c2c1CCC2,9%[3.69 µM],3%,-6%,4.2%,?,-5%,0%,-7%
O=C(Cc1csc2nc(-c3ccccc3)cn12)NCc1ccc(F)cc1,nt,nt,0%,-1.4%,nt,nt,6%,?
CC(C)C(=O)NC(=S)Nc1sc2c(c1C(N)=O)CCCC2,28%,20%,37%[activator],-4.7%,?,3%,-6%,1%
CCc1nc(Nc2ccc(OC)cc2OC)c2oc3ccccc3c2n1,-8%,2%,?,nt,?,1%,nt,?
COc1ccc(OCC(=O)NCCc2ccc(S(N)(=O)=O)cc2)cc1,-4%,5%,5%,3.1%,-1%,5%,-1%,0%
CCOC(=O)c1ccc(N2N=C(C)/C(=C/C=C/c3ccco3)C2=O)cc1,-9%,15%,-1%,-7.2%,-29%,3%,?,?
CC(=O)Nc1ccc(Cc2ccc3[nH]c(=O)cc(C)c3c2)cc1,nt,-3%&3%,nt,1.2%,nt,0%,1%,nt
O=C1CC(c2ccc(F)cc2)CC(O)=C1C1NCCc2ccccc21 (centres undefined),1%,9%,-15%,0.0%,3%,-10%,-8%,23%
Cc1cc(S(=O)(=O)N2CCCc3ccccc32)ccc1-n1cnnn1,5%,-5%,49%[activator],nt,-20%[46.1 µM],-1%,nt,-19%
Cc1ccc(/C=N/NC(=O)C(C)NC(=O)c2ccccc2)cc1 (centres undefined),-6%,nt,1%,nt,-15%[46.1 µM],4%,nt,-1%
COCCOCCn1c(CCCO)nc2ccccc21,-13%,13%,-7%,0.7%,-2%[46.1 µM],6%,4%,0%
COc1ccccc1-c1nc(SCC(=O)NCc2ccc(C)cc2)c2c(=O)n(C)c(=O)n(C)c2n1,nt,nt,-10%,2.8%,nt,nt,4%,17%[46.1 µM]
Cc1ccc2nc(N=C(N)N)nc(C)c2c1,7%,-5%,?,nt,?,1%,nt,-13%
O=C(NCc1nnc2c(C(F)(F)F)cc(Cl)cn12)C1CCCC1,-9%,17%,3%,nt,nt,8%,nt,nt
CC[N+](C)(CC)CC(O)COCC1COc2ccccc2O1 (centres undefined),-5%,4%,-14%,0.7%,?,-6%,1%,16%
COc1ccc(Br)c(C(=O)OCC(=O)N2CCc3ccccc32)c1,17%,nt,22%,nt,-29%,1%,nt,?
COc1cc(OC)c(NC(=O)CSc2nccn2C)cc1Cl,nt,nt,-19%,-1.5%,-7%[46.1 µM],nt,-11%,-3%[46.1 µM]
COc1ccccc1NC(=O)C(C)OC(=O)Cc1ccsc1 (centres undefined),4%,nt,-3%,nt,11%,0%,nt,?
COc1ccc(S(=O)(=O)N2CCC(NC(=O)c3cccc(F)c3)CC2)cc1,-6%,18%,1%,nt,nt,0%,nt,nt
O=C(O)C1CC(=O)N(CCc2c[nH]c3ccccc23)C1 (centres undefined),-5%,-8%,-8%,-0.3%,6%,-3%,13%,-1%
Cc1ccc(-c2cc(Cc3ccc(N(C)C)cc3)c(=O)[nH]n2)cc1,13%,-9%,23%,nt,nt,1%,nt,nt
CC(=O)c1ccc(NC(=O)Cn2cnc3nc4c(cc3c2=O)CC(C)CC4)cc1 (centres undefined),nt,nt,-11%,-0.1%,nt,nt,-7%,14%[46.1 µM]
CCCCn1c2ccc(F)cc2c2nnc(SCCN(CC)CC)nc21,nt,nt,-16%,16µM*,?,nt,20µM*,?
Fc1ccc(CN2CCc3nc(Nc4ccccc4)ncc3C2)cc1F,nt,nt,-17%,-9.1%,nt,nt,-19%,29%[46.1 µM]
COC(=O)C(NNc1ccc(F)cc1)(NC(=O)c1ccccc1)C(F)(F)F (centres undefined),-1%,-22%,?,-2.0%,13%,3%,-8%,?
Cc1cccc(N2CCN(C3(c4ccccc4)C(=O)c4ccccc4C3=O)CC2C)c1 (centres undefined),nt,nt,?,-4.5%,-2%[46.1 µM],nt,-8%,-23%[46.1 µM]
COc1ccc2c(C)cc(SCC(=O)N(C)C3CCS(=O)(=O)C3)nc2c1 (centres undefined),-12%,nt,-1%,nt,-13%[46.1 µM],1%,nt,-5%
CSc1sc(C(=O)O)c2c1C(=O)CCC2,1%,8%,-1%,-4.5%,28%,-6%,0%,-3%

# (further entries)
SMILES,RE007 growth inh,NS1 function inh,StopGo reporter,Cruzain Triton,Marburg entry inh,SARS PLpro yeast,Cruzain noTriton,LASV entry inh
CC(C)c1ccc(C(=O)NC2=NCCS2)cc1,-27%,8%,-13%,-1.1%,7.3µM*,-6%,-3%,16µM*
CSCCC(NC(N)=O)C(=O)Nc1ccc(C)cc1 (centres undefined),-1%,nt,15%,nt,?,-1%,nt,6%
O=C(c1cc(-c2ccc(O)cc2)on1)N1CCOCC1,-2%,14%,19%,nt,?,-3%,nt,?
CCOc1cc(N2CCOCC2)c(OCC)cc1NC(=O)c1ccc(NC(C)=O)cc1,3%,nt,-20%,nt,-16%[46.1 µM],-3%,nt,?
CN(C)c1c([N+](=O)[O-])ncn1C,0%,4%,-15%,4.3%,8%,3%,-2%,8%
CCOC(=O)c1cc2sccc2n1CC(=O)N1CCN(C(=O)c2ccco2)CC1,-1%,1%,nt,4.1%,0%,10%,-7%,-5%
COc1ccc(-c2cc(=O)oc3cc(OC(C)C(=O)NC4CC4)ccc23)cc1 (centres undefined),-6%,-2%,-11%,nt,nt,4%,nt,nt
C[C@H](NC(=O)c1ccco1)C(=O)NNC(=O)c1ccc(F)cc1,-10%,nt,-1%,nt,-1%[46.1 µM],-2%,nt,-3%[46.1 µM]
